# Bead autofluor – flagged as autofluorescent in microsphere protease counterscreen; 360,000 compounds, 3.1% hits; compound autofluorescence counterscreen, microsphere flow cytometry; stronger effect = higher value; fluorescence intensity (test concentration not listed); AID 624483;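 active means at least 3 SD above the mean of all compounds, about 16000 in these data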;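 further: 100 nL of 1 mM stock went into each well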
# Active calls of the source: *. Only part of the results is shown; rates above refer to the full screens.
SMILES,Bead autofluor
Cc1cc(Br)c2nc(-c3ccccc3)c(Cc3cccc(Cl)c3)n2c1,6691
CC1(C(=O)NS(=O)(=O)c2cccs2)CCN1C(=O)Cc1ccccc1 (stereo unspecified),2793
O=C(Nc1ccc2c(c1)OCO2)c1cc(C2CCCN(C(=O)C3CCCCC3)C2)on1 (stereo unspecified),3893
OC(c1ccccc1)c1ncc(-c2ccc(Oc3ccccc3)cc2)[nH]1 (stereo unspecified),2870
COc1ccc(S(=O)(=O)N2CCC[C@H]2C(=O)N2CCC[C@H]2C(=O)NCc2ccccc2)cc1C,6214
CN(C)C(=O)c1cccc(-c2cnc3c(NC=O)cc(-c4cc(F)c(F)c(F)c4)cn23)c1,3472
COC(=O)c1cccc(CN2C(=O)C(C)Oc3ccc(C)cc32)c1 (stereo unspecified),3115
C[C@@H]1CCCCO[C@H](CN(C)Cc2ccccc2)[C@@H](C)CN([C@H](C)CO)C(=O)c2cc(NS(=O)(=O)c3ccc(Cl)cc3)ccc2O1,3595
Cc1ccccc1NC(=O)Nc1nc(CN)cs1,3999
CCOC(=O)c1cc(OCC)c2c(ccc3ccccc32)n1,2783
O=[N+]([O-])c1ccc(NN=CC2CCCCCC2)c([N+](=O)[O-])c1,6181
Cc1ccc(NC(=O)CC[C@H]2O[C@@H](n3cnc4c(NC(=O)c5ccccc5)ncnc43)[C@H](O)[C@@H]2O)cc1C,5355
O=C(Nc1cccc2c1[nH]c(=O)c1ccccc12)C(F)(F)F,3624
NC(Cc1ccc(Cl)cc1)c1csc(NC(=O)NCC2CCCCC2)n1 (stereo unspecified),3930
CC(C)c1ccc(Nc2n[nH]c(=S)s2)cc1,5739
CCNC(=O)C1(C)CCCN(C(=O)COCc2ccccc2)C1 (stereo unspecified),3020
COc1ccc(-n2c(COc3ccc(Cl)cc3Cl)n[nH]c2=S)cc1,3718
CC(=O)Nc1ccc(C(=O)OCC(=O)NC(=O)NCc2ccccc2)cc1,3514
OC(Cc1ccccc1Br)c1ncc(-c2cccc(C(F)(F)F)c2)[nH]1 (stereo unspecified),3829
NC(c1csc(Nc2nncc3ccccc23)n1)C1CCCCC1 (stereo unspecified),4362
Clc1cccc(Cc2c(-c3ccco3)nc3c4ccccc4ccn23)c1,6930
Cc1cc2nc(-c3cccc(Cl)c3)c(Cc3ccsc3)n2c(C)c1Br,6217
O=C(O)C(=Cc1ccc([N+](=O)[O-])cc1)CCc1ccccc1,3331
COCCNC(=O)C1(C)CCCN(Cc2cccc(F)c2)C1 (stereo unspecified),2747
CNc1ccc(-c2cccc(C(=O)N3CCOCC3)c2)cn1,4024
Cc1cccc(C)c1NC(=O)CN1CCN(c2ccc(C(F)(F)F)cn2)CC1,5119
CC(=O)OC1CCC2C3CCc4cc(OP(=O)(N5CC5)N5CC5)ccc4C3CCC12C (stereo unspecified),3686
CCNC(=O)C1CCCN(C(=O)c2ccc(OC(F)F)cc2)CC1 (stereo unspecified),4292
O=C(CCCN1C(=O)/C(=C/c2ccc(F)cc2)SC1=S)Nc1ccc(C(=O)O)cc1,2913
C[C@@H]1CN([C@H](C)CO)C(=O)CCCn2nncc2CO[C@@H]1CN(C)C(=O)c1ccncc1,2956
CN(CC(=O)Nc1ccc(F)c(F)c1F)C(=O)CCN1C(=O)C2CC=CCC2C1=O (stereo unspecified),3844
CCCCCCN1C[C@@H](n2cc(C3CC3)nn2)[C@H](O)C[C@@H]1c1ccc(Cl)cc1,3477
COc1cc(C(=O)N2Cc3cc4ccccc4nc3C2C)cc(OC)c1OC (stereo unspecified),3537
O=CNc1cc(-c2ccc(C(=O)N3CCOCC3)cc2)cn2c(-c3ccc(F)cc3)cnc12,4095
O=C(COC(=O)c1ccc(OC(F)F)cc1)NCC1CCCO1 (stereo unspecified),3986
Cc1cc(=O)oc2c(N)nccc12,4571
Cc1cc(C(C)(C)C)cc(CN2CCN(S(=O)(=O)c3cccs3)CC2)c1O,3795
CCc1nc2ccc(C(=O)NCCc3c[nH]c4ccccc34)cn2c1N(C)Cc1nccn1C,3763
Cc1cc2nc(-c3ccc(Cl)cc3)c(CC(C)(C)C)n2c(C)c1Br,6057
COc1ccc(CN2C[C@@H](CO)O[C@@H](n3cnc4c(NCCO)ncnc43)C2)cc1,3523
COCc1ccc(C(=O)N2CCCC(N(C)CCc3ccccc3)C2)s1 (stereo unspecified),3583
COc1ccc(CC(N)c2csc(NC(=O)Nc3ccc(OC)cc3)n2)cc1 (stereo unspecified),3888
CC(O)(c1cccc(F)c1)c1nc(-c2ccncc2)cs1 (stereo unspecified),3707
COc1cccc(CNc2nc3cc(-c4cnn(Cc5ccccc5)c4)sc3c(=O)n2C)c1,3945
CCCNC(=O)C1(C)CCCN(Cc2ccc(Oc3ccccc3)cc2)C1 (stereo unspecified),4188
O=C(NCCOc1ccccc1)C1CCN(C(=O)Nc2ccccc2)CC1,4008
CCCNC(=O)C1(C)CCN(Cc2ccc(OCc3ccccc3)cc2)C1 (stereo unspecified),3900
CSc1ccc(NC(=O)C2(C)CCN2C(=O)Cc2ccc(C(C)(C)C)cc2)cc1 (stereo unspecified),3479
CC1(C(=O)NS(=O)(=O)c2cccc(C#N)c2)CCN1C(=O)Cc1ccc(-c2ccccc2)cc1 (stereo unspecified),3785
CC(=O)Nc1cc(-c2cccc(C)c2)cn2c(-c3ccc(S(C)(=O)=O)cc3)cnc12,3739
COC(=O)c1ccc(CC2(C)C(=O)Nc3ccc(OC(F)(F)F)cc32)o1 (stereo unspecified),3617
COc1ccc(NC(=O)COC(=O)c2c(C)noc2C)cc1Cl,3720
COc1ccc(C(C#N)=Cc2ccc(N(C)CCC#N)cc2)cc1,4083
CCCC(=O)N1CCC1(C)C(=O)Nc1scc(C)c1C#N (stereo unspecified),2780
COc1ccc(S(=O)(=O)N2CCN(C(=O)c3ccccc3Cc3ccccc3)CC2)cc1OC,3383
COCCNC(=O)C1(C)CCCN(C(=O)c2ccccc2OC(F)(F)F)C1 (stereo unspecified),3813
CC1(C)NC(=O)N(CCC(=O)Nc2ccc(C(C)(C)C)cc2)C1=O,3658
COc1ccc(SC2=C[C@@]3(O)CC[C@@H](O)[C@@](Sc4ccc(OC)cc4)(C2=O)[C@H]3O)cc1,5336
Cc1noc(C)c1S(=O)(=O)N(C)C[C@H]1OCCCC[C@H](C)Oc2ccc(NC(=O)CCCN(C)C)cc2C(=O)N([C@H](C)CO)C[C@@H]1C,3405
O=C(NCCN1CCOCC1)c1ccc(NC(=O)c2ccc(Br)o2)cc1,5974
# Further entries:
SMILES,Bead autofluor
C=C1C(=O)[C@]23C[C@H]1CC[C@H]2[C@]1(C)[C@@H](O)CC[C@@](C)(C(=O)O)[C@H]1C[C@@H]3O,5215
COc1ccc(-n2nnnc2CNC(=O)C2CC(=O)N(c3ccc(F)cc3)C2)cc1 (stereo unspecified),2881
COc1ccc(NC(=O)c2cc(C3CCCCN3S(C)(=O)=O)on2)c(C)c1 (stereo unspecified),2910
CN(C(=O)COc1ncnc2ccc(Br)cc12)C1CCCCC1,3718
O=C(OCC(=O)c1ccc[nH]1)c1ccc(S(=O)(=O)C(F)F)cc1,3821
C#Cc1cccc(Nc2nc(NCc3ccccc3)nc3ccsc23)c1,3927
COc1ccccc1NC(=O)N(C)C[C@@H]1OCc2cnnn2CCCC(=O)N([C@H](C)CO)C[C@H]1C,3780
CCOC(=O)N1CCN(S(=O)(=O)N2CCCC(C(=O)NCc3cc(OC)ccc3OC)C2)CC1 (stereo unspecified),3827
CSc1ccccc1C(=O)OCC(=O)NC1CCCCCCC1,3781
CC(=O)Nc1cc(-c2cccc(C(=O)N(C)C)c2)cn2c(-c3ccc(C(C)=O)cc3)cnc12,3912
Cc1noc(C)c1S(=O)(=O)NC(=O)C1(C)CCN1C(=O)CC(c1ccccc1)c1ccccc1 (stereo unspecified),3810
CCc1nc2ccc(C(=O)NCCOc3ccc(OC)cc3)cn2c1N(CC)CCOC,3848

# Brought forward from above: five entries; new compounds follow.
SMILES,Bead autofluor
CCOC(=O)N1CCN(S(=O)(=O)N2CCCC(C(=O)NCc3cc(OC)ccc3OC)C2)CC1 (stereo unspecified),3827
CSc1ccccc1C(=O)OCC(=O)NC1CCCCCCC1,3781
CC(=O)Nc1cc(-c2cccc(C(=O)N(C)C)c2)cn2c(-c3ccc(C(C)=O)cc3)cnc12,3912
Cc1noc(C)c1S(=O)(=O)NC(=O)C1(C)CCN1C(=O)CC(c1ccccc1)c1ccccc1 (stereo unspecified),3810
CCc1nc2ccc(C(=O)NCCOc3ccc(OC)cc3)cn2c1N(CC)CCOC,3848
CCOc1ccc(-c2ccc(C3=CC(=O)C[C@H](c4ccc(F)cc4)C3)cc2)cc1,4647
COc1cc(Nc2ccn3nc(-c4ccccc4Cl)cc3n2)cc(OC)c1OC,3550
CCc1nc2ccc(C(=O)NCc3cccs3)cn2c1N(CC)Cc1cccc(Br)c1,3074
COc1ccc(C(=O)NCC[N+](C)(C)C)cc1,5784
CN(Cc1ccc(Cl)cc1Cl)C(=O)C1CC(=O)N(Cc2ccco2)C1 (stereo unspecified),3835
COC(=O)[C@@]1(Cc2ccc(OC)cc2)[C@H]2c3cc(C(=O)N4CCCC4)n(Cc4cc(C)n(C)n4)c3C[C@H]2CN1C(=O)c1ccccc1,4165
CSc1ccc(C(O)c2ncc(-c3cccc(F)c3)[nH]2)cc1 (stereo unspecified),3008
COc1ccc(C2=Cc3ccccc3C(CC(=O)C3CC3)N2c2ccc(-c3cc(OC)c(OC)c(OC)c3)cc2)cc1 (stereo unspecified),5503
CCc1nnc(NC(=O)CSc2nnc(CNC(=O)c3ccccc3)o2)s1,3079
CCOC(=O)C1=C(C)N=c2sc(=Cc3cc(Cl)c(OCC(=O)O)c(Cl)c3)c(=O)n2C1c1cccc(OC)c1 (stereo unspecified),3062
c1cn2cc(-c3ccc(CN4CCOCC4)cc3)ccc2n1,3125
CC(=O)Oc1ccccc1Cn1c(C)c(C(=O)NCc2ccc(Cl)c(Cl)c2)sc1=O,5660
CC1C(=O)OC2C1CCC1(C)C3(C)C(=O)C=CC213 (stereo unspecified),5727
NC(c1csc(NC(=O)Nc2ccccc2Oc2ccccc2)n1)c1ccccc1Cl (stereo unspecified),3591
COCCNC(=O)C1(C)Cc2c(-c3ccc(NC(C)=O)cc3)ccnc2O1 (stereo unspecified),4055
COc1cccc(-c2cnc3c(NC(C)=O)cc(-c4ccc(C(=O)NC5CC5)cc4)cn23)c1,3748
N#C/C(=C\c1cccn1S(=O)(=O)c1ccccc1)S(=O)(=O)c1ccc(F)cc1,4575
C[C@@H]1CN([C@H](C)CO)C(=O)CCCn2nncc2CO[C@H]1CN(C)Cc1ccccc1C(F)(F)F,3511
CN(C)CCCNC(=O)c1cccc(-c2ccc3nncn3c2)c1,3946
CC(=O)N1CCCC(C)(C(=O)Nc2ccc3oc(C)nc3c2)C1 (stereo unspecified),3755
COC(=O)c1ccc2nc(-c3ccc(OC)c(OC)c3)c(CC3CCCCC3)n2c1,4141
Cc1ccccc1OC1(C)CCN(Cc2ccc3ccccc3c2)C1 (stereo unspecified),3928
O=C(/C=C/[C@H]1O[C@@H](n2ccc(=O)[nH]c2=O)[C@H](O)[C@@H]1O)NCc1cccnc1,4175
CCNC(=O)C1(C)CCCN(C(=O)c2ccc3c(c2)C(C)(C)CCC3(C)C)C1 (stereo unspecified),2952
CCOC(=O)C1=C[C@@H](C(C)(C)C)N(S(=O)(=O)c2ccc(C)cc2)[C@H]1c1ccc(F)cc1,5560
CC(C)CNc1ncnc2c1ncn2[C@H]1CN(C2CCCC2)C[C@@H](CO)O1,4064
Cc1nc(NC(=O)c2ccccc2)sc1-c1cc(C(=O)O)nn1Cc1ccccc1,3511
O=C1NCN(c2ccccc2)C12CCN(C(c1ccnc3ccccc13)c1nnnn1Cc1ccccc1)CC2 (stereo unspecified),4262
COCCCN1C(=O)C(CC(=O)NCc2cccc3ccccc23)CC(C(=O)N(C)C)=C1C (stereo unspecified),3527
O=C1NC[C@@H](CCCCN2C[C@H](Cc3ccc(O)cc3)N(CC3CCCCC3)C(=O)C2=O)N(CC2CCCCC2)C1=O,4907
CCCCCN1C(=O)c2ccccc2[C@@]2(C(=O)OCC)Cc3cc(OC)ccc3[C@@H]12,5794
CC(C)[C@@H]1Cc2[nH]c(=S)[nH]c(=O)c2[C@H](C)O1,5641
CC1(C(=O)NCC2CC2)Cc2c(-c3ccccc3)ccnc2O1 (stereo unspecified),3965
C[C@@H]1CN([C@H](C)CO)S(=O)(=O)c2ccc(Br)cc2O[C@H]1CN(C)C(=O)Nc1cccc(F)c1,2959
CN(C)c1ccc(-c2ccnc3c2CC(C)(C(=O)Nc2cccc(C(F)(F)F)c2)O3)cc1 (stereo unspecified),3920
Cc1ccc(S(=O)(=O)NC(C)C(=O)OCC(=O)Nc2sccc2C(N)=O)cc1 (stereo unspecified),3558

# In another format: entries from further up
> COC(=O)c1ccc(CC2(C)C(=O)Nc3ccc(OC(F)(F)F)cc32)o1 (stereo unspecified)
  Bead autofluor = 3617

> COc1ccc(NC(=O)COC(=O)c2c(C)noc2C)cc1Cl
  Bead autofluor = 3720

> COc1ccc(C(C#N)=Cc2ccc(N(C)CCC#N)cc2)cc1
  Bead autofluor = 4083

> CCCC(=O)N1CCC1(C)C(=O)Nc1scc(C)c1C#N (stereo unspecified)
  Bead autofluor = 2780

# Continued.
SMILES,Bead autofluor
COc1cccc(C(NC(C)=O)c2nc(-c3cccc(C(F)(F)F)c3)cs2)c1 (stereo unspecified),3478
COc1cccc2ccc(CC(O)(c3ccccc3)c3ccccc3)nc12,3624
CN(Cc1cccc(-c2cccnc2)c1)C(=O)Oc1ccc([N+](=O)[O-])cc1,5673
Cc1ccc2nc(-c3ccccc3)c(Cc3ccsc3)n2c1,4359
CC(=O)NC(c1ccc(F)c(F)c1)c1nc(-c2cnc3ccccc3c2)cs1 (stereo unspecified),3589

# Bioassay records from PubChem.
